KCNQ2 pot: potentiators of rat KCNQ2 potassium channel | B-score at 10 µM | 0.54% of 310,000 active | O88943 | CHO-K1 KCNQ2, FluxOR thallium flux fluorescence; active compounds read high;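 active = fluorescence ratio B-score at least 3 SD of library B-scores, with initial fluorescence B-score within 3 SD, cut at about 5.3 in these data; same plate scores as AID 2156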;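 also: B-score of peak minus minimum over baseline fluorescence ratio after K+ and Tl+ stimulus; positive B-score means potentiation of KCNQ2 with more thallium influx and brighter signal; only the inactives scoring about 0 or higher are listed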
Target sequence (O88943 whole entry, looked up): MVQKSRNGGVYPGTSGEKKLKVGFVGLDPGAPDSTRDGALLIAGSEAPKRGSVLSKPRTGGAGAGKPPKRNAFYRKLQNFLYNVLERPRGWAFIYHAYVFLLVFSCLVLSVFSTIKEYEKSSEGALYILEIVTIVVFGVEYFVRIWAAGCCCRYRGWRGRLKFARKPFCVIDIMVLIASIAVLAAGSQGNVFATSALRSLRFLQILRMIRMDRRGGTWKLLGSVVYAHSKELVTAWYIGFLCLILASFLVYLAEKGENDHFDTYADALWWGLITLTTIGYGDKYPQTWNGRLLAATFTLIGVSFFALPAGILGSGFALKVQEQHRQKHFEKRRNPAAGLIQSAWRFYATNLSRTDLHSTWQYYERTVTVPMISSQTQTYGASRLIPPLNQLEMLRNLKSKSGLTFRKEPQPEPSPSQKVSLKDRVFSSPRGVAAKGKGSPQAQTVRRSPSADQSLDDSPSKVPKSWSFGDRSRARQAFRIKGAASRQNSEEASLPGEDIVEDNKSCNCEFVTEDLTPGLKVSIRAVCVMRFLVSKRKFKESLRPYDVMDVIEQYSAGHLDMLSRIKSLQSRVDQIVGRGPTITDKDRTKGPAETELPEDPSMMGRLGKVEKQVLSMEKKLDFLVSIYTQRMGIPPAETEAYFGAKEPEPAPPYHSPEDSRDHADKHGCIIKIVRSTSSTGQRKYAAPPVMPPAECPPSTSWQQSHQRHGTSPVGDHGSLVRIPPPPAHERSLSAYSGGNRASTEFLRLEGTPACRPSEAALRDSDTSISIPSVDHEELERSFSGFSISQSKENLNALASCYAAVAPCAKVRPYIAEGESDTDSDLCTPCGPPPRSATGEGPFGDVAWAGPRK
KCNQ2 pot baseline: second read-out of KCNQ2 pot, no call of its own (marks repeat the call); B-score; compound at 10 µM; measured here: initial fluorescence intensity artifact check;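 brightness before thallium and not channel activity; 0 = typical well and far values either way flag optical interference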
* = called active by the depositor.

Under each structure – KCNQ2 pot, KCNQ2 pot baseline
CC(=O)c1ccc(OCC(O)CNCc2ccc3c(c2)OCO3)cc1 (configuration not stated)
  0.98, 0.96
CCC1CCc2sc(C(=O)N3CCCN(C)CC3)cc2C1 (configuration not stated)
  0.61, 2.34
Cc1ccc(CNC(=O)c2ccc(N3CCC4(CC3)CC(c3ccccc3)=NO4)c(NC(=O)c3ccc(Cl)c([N+](=O)[O-])c3)c2)cc1
  0.67, 0
CC1CCc2c(sc(NC(=O)CCC(=O)O)c2C(=O)NC2CC2)C1 (configuration not stated)
  1.19, 1.12
C[C@@H]1CC=C[C@H]2[C@H]1C(=O)N(Cc1ccccc1)[C@H]2c1ccc(F)c(/C=C/c2ccccc2)c1
  0.31, -0.87
O=C(Nc1ccccc1C(=O)O)c1ccc2c(c1)C(=O)N(c1cccc([N+](=O)[O-])c1)C2=O
  1.99, 0.21
Cc1noc(NS(=O)(=O)c2ccc(N/C=C\C(=O)c3ccc(F)cc3)cc2)c1C
  3.26, 0.12
Cc1cc(=O)c2c(O)c(O)ccc2o1
  0.1, 0.65
Cc1cc(C)nc(NS(=O)(=O)c2ccc(N3Cc4ccccc4C3=O)cc2)n1
  0.73, 0.4
COc1ccc(CNC(=O)COC(=O)c2c[nH]c(=O)[nH]c2=O)cc1OC
  0.57, 0.18
CCC(C)NC(=O)c1cc(OC)c(OC)c(OC)c1 (configuration not stated)
  0.33, -2.96
Cc1ccc(-c2noc(CCC(=O)NCCN3CCN(Cc4ccccc4)CC3)n2)cc1
  2.66, -2.18
O=C(CCCN1CCC(c2ccccc2)C1)c1ccc2c(c1)OCCO2 (configuration not stated)
  0.01, 1.67
CC(C)CC(=O)Nc1c2c(nn1-c1ccc(F)cc1)CS(=O)C2 (configuration not stated)
  0.39, -0.76
CCCNC(=O)N1CCC(Cc2ccccc2)CC1
  0.28, 1.24
Cc1cc(N2CCN(C(=O)c3ccco3)CC2)n2nc(-c3cccc(F)c3)cc2n1
  0.28, -2.86
COc1ccc2oc(C(=O)OCC(=O)N(C)C3CCS(=O)(=O)C3)c(C)c2c1 (configuration not stated)
  1.02, -0.95
Cc1nn(C)c(C)c1Nc1ccc(N2C(=O)C3CC=CCC3C2=O)cc1[N+](=O)[O-] (configuration not stated)
  2.11, -0.02
CCOc1ccc(NC(=O)Cn2nnc(C(=O)NCc3ccccc3OC)c2N)cc1
  0.16, 1.38
O=C(c1ccc(COCC(F)(F)F)o1)N1CCCCCC1
  0.65, -1.88

One compound at a time (already shown). Values in the order: KCNQ2 pot | KCNQ2 pot baseline
Profile of `CCCNC(=O)N1CCC(Cc2ccccc2)CC1` = 0.28 | 1.24
Profile of `CC(C)CC(=O)Nc1c2c(nn1-c1ccc(F)cc1)CS(=O)C2` (configuration not stated) = 0.39 | -0.76
Profile of `Cc1cc(N2CCN(C(=O)c3ccco3)CC2)n2nc(-c3cccc(F)c3)cc2n1` = 0.28 | -2.86
Profile of `O=C(CCCN1CCC(c2ccccc2)C1)c1ccc2c(c1)OCCO2` (configuration not stated) = 0.01 | 1.67

Next results follow:
Under each structure – KCNQ2 pot, KCNQ2 pot baseline
CN1CCN(C(=S)C(=O)Nc2ccccc2)CC1
  0.07, -0.02
Cc1cc(C)c2c(N)c(C(=O)c3ccccc3Cl)sc2n1
  1.21, 0.9
CCOC(=O)c1c(NC(=O)CCC(=O)O)sc2c1CC(C)(C)OC2
  0.28, -0.05
CCOC(=O)c1cc2c(=O)[nH]ccc2nc1C(F)(F)F
  0.08, 0.79
O=C(/C=C/c1cccs1)c1ccc(N2CCOCC2)cc1
  0.54, -0.43
CCn1ccnc1CN(C)C(=O)c1cc(COc2ccccc2SC)on1
  1.01, 0.03
Cc1cccnc1NC(=O)CCCN1C(=O)c2ccccc2C1=O
  0.52, -0.73
COc1cc2c(cc1NC(=O)/C=C/c1cc(OC)c(OC)c(OC)c1)oc1ccccc12
  0.54, 0.03
CCc1nnc2c(N(C)S(=O)(=O)c3ccc(C)cc3)nc3ccccc3n12
  1.4, 1.23
O=C1CCNc2c(Cl)cccc21
  0.37, 0.02
O=C1NC[C@@H](Cc2ccc(O)cc2)N(CCc2cccc3ccccc23)C1=O
  1.21, 0.66
O=c1[nH]c(/C=C/c2ccc(Cl)cc2Cl)c([N+](=O)[O-])c(=O)[nH]1
  1.22, -0.56
N/C(=N\S(=O)(=O)c1cc(C(F)(F)F)cc(C(F)(F)F)c1)c1ccc(Cl)cc1
  0.04, -0.06
O=C(Nc1cccnc1)c1cc(F)cc(F)c1
  0.31, 1.44
O=C(CSc1nc(-c2ccco2)cc(C(F)(F)F)n1)Nc1ccc2c(c1)CCC2
  0.63, -0.15
CN(C)S(=O)(=O)c1ccc(N)c([N+](=O)[O-])c1
  0.64, 0.16
COc1cc(O)c(C(CCN2CCOCC2)c2cc(OC)c(OC)c(OC)c2)c(OC)c1 (configuration not stated)
  2.09, -1.09
C/C=C/C(=O)OCC(=O)Nc1cc(OC)c([N+](=O)[O-])cc1C
  0.05, -3.1
Cc1c(Cc2ccccc2)c(=O)oc2cc(OCC(=O)c3ccccc3)ccc12
  1.43, -1.6
COc1cccc2c1Oc1ncccc1N(C(=O)CCC(=O)NCc1ccc(F)cc1)C2
  0.41, -4.48
CCn1cc(C(=O)N2CCOCC2)c(=O)c2cc(S(=O)(=O)N(C)C)ccc21
  1.27, 0.27
C/C(=N\NC(=O)c1ccc(Cn2cc([N+](=O)[O-])cn2)o1)c1cccc(NC(=O)C(C)C)c1
  0.72, 0.01
O=C(NC(CSSCC(NC(=O)c1ccccc1)C(=O)O)C(=O)O)c1ccccc1 (configuration not stated)
  0.3, -0.17
COc1ccccc1OCC(=O)NNC(=O)Nc1ccc(Cl)cc1
  0.7, 2.22
COc1ccccc1NC(=S)NC(=O)c1ccc(-c2ccc(Cl)cc2)o1
  1.24, -0.88
O=C(N/N=C/c1cccc(F)c1)NC1CCCCC1
  0.52, 0.15
OCCN1CCN(CC(O)C(F)(F)F)CC1 (configuration not stated)
  0.03, 0.18
COc1cccc(-n2nc(-c3ccnn3-c3ccccc3)c(=O)n(C)c2=O)c1
  0.05, 1.04
Cc1ccc(CCN2C(=O)CCC2(C)C(=O)NCc2cccnc2)cc1 (configuration not stated)
  0.59, 0.01
O=C(COc1ccc(S(=O)(=O)N2CCCC2)cc1)Nc1ccc2c(c1)OCCO2
  0.01, 0.5
COc1ccc(S(=O)(=O)Nc2cccc(N(C)S(C)(=O)=O)c2)cc1C
  1.77, 0.68
CN1C(=O)CSc2ccc(NC(=O)NCc3ccccc3)cc21
  1.1, -0.67
O=C(Nc1ccccc1C(=O)O)c1cc(S(=O)(=O)N2CCCCC2)cs1
  1.07, -0.24
CCOC(=O)Cc1csc(NC(=O)C2CCCCC2C(=O)O)n1 (configuration not stated)
  1.19, -0.26
COc1ccc(S(=O)(=O)N/N=C/c2ccc(OCCN3CCOCC3)c(OC)c2)cc1
  0.21, -0.64
C=CCNC(=O)C(=O)Nc1cc2c3c(c1)CCC(=O)N3CCC2
  0.17, -0.76
O=c1c2cnn(-c3ccccc3)c2ncn1Cc1ccccn1
  1.47, -1.53
COc1ccc(CCC(=O)NCCNC(=O)CCc2ccc(OC)cc2)cc1
  0.21, 0.92
O=C(NC1=NCCS1)c1ccc(Cl)cc1
  1, -1.63
CN(Cc1ccccc1)S(=O)(=O)c1ccc(NC(=O)C2CCCO2)cc1 (configuration not stated)
  1.65, -0.83
CC(=O)c1ccc(NC(=S)NCCCn2ccnc2)cc1
  0.01, 1.5
Cc1onc(-c2ccccc2)c1NC(=O)Nc1ccc(OC(F)F)cc1
  1.03, -0.96
COc1cc(CNc2ccc3[nH]c(=O)[nH]c3c2)ccc1OCc1ccccc1C
  1.25, 0.9
COc1cccc(C2C(C#N)=C(N)N(N(C)C)C3=C2C(=O)CCC3)c1 (configuration not stated)
  1.53, -1.04
Cc1cc(C)c2nc(N3CCN(C)CC3)c(C#N)cc2c1
  0.03, 1.62
Cc1ccccc1NC(=O)Cc1nc(COC(=O)CCNS(=O)(=O)c2ccccc2)cs1
  1.34, -0.08
Cc1cccc(NC(=O)CN2C(=O)C(C)Oc3ccccc32)n1 (configuration not stated)
  0.34, -0.84
O=C1CSc2ccc(C(=O)NCC(c3ccco3)N3CCCCC3)cc2N1 (configuration not stated)
  0.13, 1.66
COc1cc(NC(=O)CSc2nnc3ccc(-c4ccncc4)nn23)cc(OC)c1
  0.03, 0.82
Cc1nnc(SCC(=O)Nc2sc3c(c2C#N)CCCCC3)n1N
  0.37, 0.38

(further entries)
Under each structure – KCNQ2 pot, KCNQ2 pot baseline
CC(=O)Nc1ccc(NC(=O)c2c(C)nc3ccccn23)cc1
  0.41, 0.79
C=CCNC(=O)NC(=O)COC(=O)/C=C/c1cccc([N+](=O)[O-])c1
  1.56, -0.7
CC(C)c1ccc(CNC(=O)C2CC(=O)N(C3CCCCC3)C2)cc1 (configuration not stated)
  0.68, -1.64
COc1ccccc1NC(=O)NC1(C(=O)NCC2CCCO2)CCCCC1 (configuration not stated)
  0.07, 1.21
CCN(CC)S(=O)(=O)c1ccc(NC(=O)c2ccc(Cl)nc2)cc1
  3.85, -1.31
O=C(c1ccc(F)cc1)n1ccc(-c2cnc(-c3ccccc3)s2)n1
  0.85, 0.29
CC1(C)Cc2cccc(OCC(=O)OCC(=O)NCc3ccc(F)cc3)c2O1
  0.08, -0.67
CC(C)(O)CNC(=O)C(Cc1ccccc1)N1C(=O)c2ccccc2C1=O (configuration not stated)
  0.71, 0.05
CC(C)(C)CNc1cc(N2CCCC2)ccc1[N+](=O)[O-]
  0.38, 0
CCCCCN(C(=O)CCC(=O)OCC(=O)c1ccc(CCC)cc1)c1c(N)n(CCCC)c(=O)[nH]c1=O
  0.47, 1
O=C(NCc1ccccn1)C(=O)NCC1OCCN1S(=O)(=O)c1ccc(F)cc1 (configuration not stated)
  0.12, 0.79
CCOC(=O)Nc1sc(C)c(C)c1C(=O)OCC
  0.71, 0.23
COc1ccc(N=C2NN=C(c3c(C)[nH]c4ccccc34)CS2)cc1
  0.05, 0.07
CCN(CC)c1ccc(NC(=O)c2[nH]c(C)c(C(C)=O)c2C)c(C)c1
  0.01, -0.6
CCN(Cc1ccccc1)C(=O)c1ccc(Cl)cc1[N+](=O)[O-]
  0.59, -0.81
Cc1ccc(C(=O)Nc2nnc(-c3ccncc3)o2)cc1
  2.57, 0.18
O=C1c2ccccc2C(=O)c2c1ncn2-c1ccccc1
  0.02, 0.97
O=C(/C=C/c1ccccc1)NCCc1ccccc1
  0.26, -0.67
O=C(OCn1nnc2ccccc2c1=O)C1CCN(S(=O)(=O)c2cccs2)CC1
  0.87, -1.4
Fc1ccc(N/N=C/C=C/c2ccccc2)c(F)c1
  0.19, -0.41

Overlap with the part before: two entries, then new ones.
Under each structure – KCNQ2 pot, KCNQ2 pot baseline
O=C(OCn1nnc2ccccc2c1=O)C1CCN(S(=O)(=O)c2cccs2)CC1
  0.87, -1.4
Fc1ccc(N/N=C/C=C/c2ccccc2)c(F)c1
  0.19, -0.41
Cc1ccc(NC(=O)CCCc2ccccc2)c([N+](=O)[O-])c1
  0.92, 0.47
Cc1ccccc1NC(=O)c1cccc(S(=O)(=O)N2CCOCC2)c1
  1.36, -0.48
CSCCC(NC(=O)c1cc([N+](=O)[O-])ccc1Cl)C(=O)O (configuration not stated)
  0.26, 0
CCc1cc2c(=O)c(-c3nc4ccccc4n3C)coc2c(CN2CCC(C)CC2)c1O
  0.1, 1.92
CCCc1n[nH]c2c1/C(=N\OCC)CC(C)(C)C2
  1.28, 0.71
CCC(=O)N1CCc2cc(S(=O)(=O)NCCCOC)ccc21
  0.95, -0.06
CS(=O)(=O)NNC(=O)C1Cc2c(ccc3ccccc23)O1 (configuration not stated)
  1.04, -0.93
O=C(OC1CCOC1=O)c1ccc(N2CCCC2)c([N+](=O)[O-])c1 (configuration not stated)
  1.1, 2.18
Cc1ccnc(NC(=O)CNC(=O)c2ccc(C)s2)c1
  0.22, -0.03
COc1ccc(C(CNC(=S)NCc2ccccc2)N2CCCC2)cc1 (configuration not stated)
  0.09, 1.66
CCN(C(=O)CSc1nnc(Cc2cccc3ccccc23)n1N)C1CCS(=O)(=O)C1 (configuration not stated)
  0.27, -1.4
O=C(CCc1ccccc1)N/N=C/c1cccc(O)c1
  2.22, -0.3
Cc1[nH]c2ccccc2c1CCNC(=O)c1c(N)no[n+]1[O-]
  0.62, -0.27
CCOC(=O)C1CCN(C(=O)c2cc3c(=O)n4cccc(C)c4nc3s2)CC1
  1.44, -0.67
CCOc1ccccc1N1C(=O)c2ccc(S(=O)(=O)c3ccc(C(=O)O)cc3)cc2C1=O
  0.15, -0.9
COC(=O)N/N=C/c1ccc(-c2ccc(Cl)c(Cl)c2)o1
  0.43, -1.16
CCN(CC(=O)Nc1c(F)cccc1F)C(=O)c1ccc2c(c1)NC(=O)C(C)S2 (configuration not stated)
  1.75, -1
COc1ccc(/C=C/C(=O)NCc2cccnc2)cc1
  0.86, -0.95
CCCc1c(C(=O)N/N=C/c2c(OC)ccc3ccccc23)nnn1-c1nonc1N
  1.28, -0.35
Cc1[nH]c2ccccc2c1C(=O)C(=O)NCCc1ccc(S(N)(=O)=O)cc1
  2.24, -2.14
Cc1cccc(NCc2nc(SCC(N)=O)n[nH]2)c1
  0.72, 1.7
CC(=O)Nc1ccc(N/C=C/C(=O)c2ccco2)cc1
  1.98, -1.68
COC(=O)C1CCN(C(=O)COC(=O)c2cc(-c3cccs3)nn2-c2ccccc2)CC1
  0.05, -0.63
NC(=O)CNC(=O)[C@@H]1CC2(CC(c3ccc(Cl)cc3)=NO2)CN1C(=O)c1ccccc1 (some centres not stated)
  0.63, 0.29
Cc1ccc(C(=O)NCc2ccncc2)cc1S(=O)(=O)N1CCCCC1
  0.68, 0.13

Bioassay records deposited in PubChem by Johns Hopkins Ion Channel Center.

Not all compounds are listed; the hit share may differ from the screen's.
